KCNQ2 enhance = potentiators of rat KCNQ2 potassium channel; Potassium voltage-gated channel subfamily KQT member 2 (Rattus norvegicus), O88943; AID 2239, 2010; CHO-K1 KCNQ2, FluxOR thallium flux fluorescence; active compounds read high; hit rate 0.54% among 310,000; B-score at 10 µM;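 active = fluorescence ratio B-score at least 3 SD of library B-scores, with initial fluorescence B-score within 3 SD, cut at about 5.3 in these data; same plate scores as AID 2156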;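 note: B-score of peak minus minimum over baseline fluorescence ratio after K+ and Tl+ stimulus; positive B-score means potentiation of KCNQ2 with more thallium influx and brighter signal; only the inactives scoring about 0 or higher are listed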
Target sequence (O88943 whole entry, looked up): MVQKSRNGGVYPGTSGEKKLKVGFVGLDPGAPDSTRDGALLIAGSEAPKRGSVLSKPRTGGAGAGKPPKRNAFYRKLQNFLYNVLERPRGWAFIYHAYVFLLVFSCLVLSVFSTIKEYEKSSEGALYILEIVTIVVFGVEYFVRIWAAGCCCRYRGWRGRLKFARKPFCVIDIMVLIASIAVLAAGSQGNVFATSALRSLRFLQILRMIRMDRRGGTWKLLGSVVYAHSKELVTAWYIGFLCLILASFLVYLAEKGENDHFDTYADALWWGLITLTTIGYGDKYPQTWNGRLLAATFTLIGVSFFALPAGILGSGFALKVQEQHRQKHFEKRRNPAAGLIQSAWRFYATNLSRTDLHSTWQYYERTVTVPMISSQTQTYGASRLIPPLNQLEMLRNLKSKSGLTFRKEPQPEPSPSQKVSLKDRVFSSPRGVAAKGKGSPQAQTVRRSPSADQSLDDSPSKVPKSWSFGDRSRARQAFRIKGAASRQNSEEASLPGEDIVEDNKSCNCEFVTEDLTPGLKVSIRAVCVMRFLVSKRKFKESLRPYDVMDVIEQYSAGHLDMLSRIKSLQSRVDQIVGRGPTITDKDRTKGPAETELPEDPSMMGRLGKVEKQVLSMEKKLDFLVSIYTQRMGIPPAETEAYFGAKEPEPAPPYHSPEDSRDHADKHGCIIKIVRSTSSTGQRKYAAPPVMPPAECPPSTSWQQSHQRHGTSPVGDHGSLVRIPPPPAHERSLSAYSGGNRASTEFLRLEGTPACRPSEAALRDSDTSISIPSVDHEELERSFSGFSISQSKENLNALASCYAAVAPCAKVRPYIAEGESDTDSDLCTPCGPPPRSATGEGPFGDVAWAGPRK
KCNQ2 enhance baseline = also measured in KCNQ2 enhance; calls as there; B-score; compound at 10 µM; measured here: initial fluorescence intensity artifact check;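 brightness before thallium and not channel activity; 0 = typical well and far values either way flag optical interference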
An asterisk follows results filed as active. Only part of the results is shown; the hit share may differ from the screen's.

SMILES	KCNQ2 enhance	KCNQ2 enhance baseline
CCN1CCN(C(=O)Cn2c(=O)sc3ccccc32)CC1	0.46	-0.43
COc1ccc(Nc2nc(C)nc3sc4c(c23)CCC4)cc1O	2.2	-2.6
COc1cccc(C(=O)Nc2cccc(-c3ccc(N4CCOCC4)nn3)c2)c1	0.9	0.62
CC(C)CN(C(=O)COC(=O)Cc1ccc(Cl)cc1)c1c(N)n(Cc2ccccc2)c(=O)[nH]c1=O	1.2	-1.1
COC(=O)C1=C(C(=O)OC)C2(OC1c1ccccc1C)C(=O)c1ccccc1C2=O (stereo unspecified)	0.06	0.82
Cc1sc2ncn(CC(=O)NCC(=O)N3CCN(c4ccccc4F)CC3)c(=O)c2c1C	0.01	0.74
CC(=O)c1cccc(NC(=O)c2ccoc2C)c1	2.1	-2.6
Cc1[nH]nc2c1C(=O)CCC2	0.09	-0.21
CC(=O)c1cccc(NC(=O)COc2ccc3oc(=O)cc(C)c3c2)c1	0.63	-0.58
COCCNC(=O)c1cccc(OC2CCN(Cc3cccc(SC)c3)CC2)c1	0.87	0.15
C/C(=C\C(=O)C(F)(F)F)Nc1ccc(C)cc1	0.41	-1.1
Cc1ccc(NC(=S)NN(C)c2cc(C)nc(C)n2)cc1	0.25	1.4
Cn1cccc1C(=O)NCC1CCCCC1	1.3	-0.52
CC(=O)Oc1cccc(N2C(=O)c3ccccc3C2=O)c1	0.25	0.59
N=c1c2c3c(sc2ncn1Nc1ccccc1)CCC3	0.15	-0.23
O=C(CSc1ncccc1-c1nc2ccccc2[nH]1)NC1CC1	1.9	1.3
O=C(NC1CCCC1)C1C2C=CC3(CN(Cc4cccs4)C(=O)C13)O2 (stereo unspecified)	0.4	0.21
O=C1CC(c2ccccc2Cl)C2=C(COC2=O)N1 (stereo unspecified)	2.8	1.5
Cn1ccnc1SCC(=O)Nc1cccc2ccccc12	0.05	1.3
CN(c1nc(-c2ccc(Br)cc2)cs1)C1CCS(=O)(=O)C1 (stereo unspecified)	1.5	-0.19
O=c1[nH]c2ccccc2cc1CN(c1ccccc1)S(=O)(=O)c1ccccc1	0.24	-1
CC(=NCc1ccco1)C1=C(O)c2ccccc2C1=O	0.54	-1.5
Clc1ccc(OCCSc2nnnn2C2CCCCC2)cc1	0.3	-1.3
CC(=O)C1=C(O)C(=O)N(CC#N)C1c1cccs1 (stereo unspecified)	0.39	-0.8
CCOc1ccc(CNC(=O)CCS(=O)(=O)Cc2ccc(C)cc2)cc1OC	0.21	1.3
CNc1cccccc1=S	0.36	1.7
Cc1cc(C)c(C(=O)CSc2nnc(-c3cccnc3)n2C)c(C)c1	0.01	-0.01
O=C(CCc1nc2ccccc2s1)Nc1cccnc1	1.9	0.14
O=c1c(Cc2ccccc2)c(O)ccn1Cc1ccco1	0.67	-0.22
C/C(=N\NC(=O)Cc1ccc(F)cc1)c1ccc(O)cc1	1.1	0.02
COc1ccc(S(=O)(=O)NCCc2c[nH]c3ccc(C)cc23)cc1	0.05	1.2
O=[N+]([O-])c1ccc(OCCCCCN2CCOCC2)cc1	1.5	-0.97
CC1(C)NC(=O)N(CCOCCOc2cccc(Oc3ccccc3)c2)C1=O	0.89	2.5
COCCNC(=S)NNC(=O)c1cc(C2CC2)nc2ccccc12	0.28	0.98
c1csc(-c2cnc3ccccc3n2)c1	0.41	-0.55
CCN(C(=O)CN1C(=O)c2ccccc2S1(=O)=O)C1CCCCC1	0.01	1.7
COc1ccccc1CNCC(=O)Nc1cc(S(=O)(=O)N2CCCCCC2)ccc1Cl	0.27	-0.04
COC(=O)CCc1c(C)[nH]c(C(=O)OCc2ccccc2)c1C	0.11	0.26
O=C(CSc1n[nH]c(=O)[nH]c1=O)Nc1cccc(S(=O)(=O)N2CCOCC2)c1	1.1	-1.1
Cc1cc(=O)oc2c3c(cc(OCC(=O)N[C@@H](Cc4ccccc4)C(=O)O)c12)OC(C)(C)CC3	0.46	2.3
COc1ccc(/C=N/NC(=O)CSc2nnc(CCCc3ccc(OC)c(C)c3)o2)cc1	0.98	-0.99
O=C(O)c1ccc(-n2nnnc2SCc2cccc(Br)c2)cc1	0.23	2.1
O=C(Nc1ccc(F)cc1F)N1CCC(c2nc3ccccc3o2)CC1	0.12	-0.1
CCN(CC)CC#Cc1ccc(C)cc1	1.5	0.08
COc1ccc(NC(=S)Nc2cccc3ccccc23)cc1OC	0.78	-2
COc1ccc(NC(=O)C2CCCN(S(=O)(=O)c3ccc4c(c3)oc(=O)n4C)C2)cc1OC (stereo unspecified)	0.44	-0.09
COc1cc(CCN2C(=O)N[C@@H](c3cccc(C(F)(F)F)c3)C(C(C)=O)=C2C)cc(OC)c1OC	0.37	-0.58
CC(Cc1ccsc1)NC(=O)CCc1nnc(COc2ccccc2)o1 (stereo unspecified)	0.15	-0.03
NNC(=O)COc1ccc(C(F)(F)F)cc1	0.93	0.48
O=C(CCN1N=C(c2ccccc2)CCC1=O)NCC1CCCO1 (stereo unspecified)	1.6	-0.22
CCOC(=O)C(C)N1N=C(/C=C/c2ccc(OC)cc2)CCC1=O (stereo unspecified)	0.21	0.65
Cc1cc(C)c2c(n1)SCC(=O)N2CC(=O)Nc1cccc(Cl)c1	0.38	-0.22
CCOC(=O)c1cc(C)sc1NC(=O)CN1CCN(C(=O)c2ccco2)CC1	1.2	1.4
CCN(CC)S(=O)(=O)c1ccc2oc(C(=O)N3CCOCC3)c(C)c2c1	0.72	2.4
COc1ccc(S(=O)(=O)N2CCC(C(=O)NCc3ccco3)CC2)cc1	0.01	-0.56
c1ncn(C23CC4CC(CC(C4)C2)C3)n1	0.34	1.6
COc1ccc(OC)c(CCNC(=O)CCc2nnc3ccc(N4CCOCC4)nn23)c1	0.31	0.24
CCOc1ccc(NC(=O)C2CCN(S(=O)(=O)c3ccc4c(c3)CC(C)N4C(C)=O)CC2)cc1 (stereo unspecified)	1.9	-0.99
Cc1cc2c(cc1C)[n+](C)cn2CC(O)COCc1ccccc1 (stereo unspecified)	0.84	-0.01
CCN(Cc1ccccc1)C(=O)CCNS(=O)(=O)c1cc(Br)cnc1N	1.7	-1.4

Additional records
SMILES	KCNQ2 enhance	KCNQ2 enhance baseline
CCOCCCNC(=S)N1CCN(c2nc(-c3ccccc3)cs2)CC1	0.82	0.02
COc1ccnc2c1c(=O)n(Cc1cccc(F)c1)c(=O)n2C	0.07	1.4
COc1ccc(C(C)=O)cc1COC(=O)C1CC(=O)N(Cc2ccccc2)C1 (stereo unspecified)	0.78	1.5
Clc1ccc2[nH]c3c(c2c1)CCc1cn[nH]c1-3	1	1.1
Cn1cc(C(=O)Nc2ccc(Cl)cc2)c(C(F)(F)F)n1	2.1	-0.98
O=C(Nc1ccc(N2CCOCC2)c(Cl)c1)c1cccnc1	1.6	1.4
Cc1onc(-c2ccccc2)c1C(=O)N1CCc2ccccc21	0.67	-0.74
COc1ccc(S(=O)(=O)Nc2cc(S(=O)(=O)c3ccccc3)c(O)cc2C)cc1	0.29	-0.65
COc1ccc(/C=N/NC(=O)c2ccc3nc[nH]c3c2)c(OC)c1OC	0.78	-0.62
CCOc1ccc(/C=C/C(=O)Oc2ccc(OC)cc2)cc1	0.35	0.21
O=C(N/N=C/c1ccc(OCc2ccccc2)cc1)c1ccncc1	0.1	-2
CN(C)CCCn1c(SCc2ccc(Cl)cc2)nnc1-c1ccncc1	0.68	0.59
COC(=O)c1ccc(C2NC(=O)CCC2[N+](=O)[O-])cc1 (stereo unspecified)	0.48	1.2
Cc1occc1C(=O)NNC(=O)C1CCCCC1	0.8	1.6
N#Cc1c(N)c(C(=O)c2ccc(Cl)cc2)n2c1CCC2	1.1	-0.1
COc1ccc(NC(=O)CNS(=O)(=O)c2ccc(Cl)cc2)cc1	0.25	-0.95
O=C(O)c1ccc(-n2cccn2)nc1	0.75	0.61
C=CCn1c(-c2ccc(OC)c(OC)c2)n[nH]c1=S	0.21	-0.98
COC(=O)c1ccccc1NC(=O)c1cc2n(n1)C(C(F)F)CC(C(F)F)N2 (stereo unspecified)	0.09	1.2
CCOC(=O)CSc1nc(C2CC2)nc2ccccc12	0.54	-1.8
Cc1nn(C(C)C)c(C)c1CN1CCN(Cc2ccsc2)C(CCO)C1 (stereo unspecified)	0.45	-1.1
CC(C)NC(=O)c1cc2ccccc2o1	2	-0.89
COc1ccc(CCN(C)CCc2ccc(OC)c(OC)c2)cc1OC	2.6	0.04
O=C(CNC(=O)c1ccccc1Cl)NC1CCN(Cc2ccccc2)CC1	0.68	-0.78
CCOc1cc(/C=N/Nc2nc(=O)[nH]nc2C)ccc1O	0.74	-1.7
Cn1c(=O)c2c(nc(SCC(=O)NCc3ccc4c(c3)OCO4)n2Cc2ccc(F)cc2)n(C)c1=O	4.6	0.48
CCCn1nc(NC(C)=O)c2cc3cccc(C)c3nc21	1.6	0.22
CN(C)Cc1cc(C(C)(C)C)c(O)c(C(C)(C)C)c1	1.1	-0.1
O=C(Nc1cccnc1)c1cc(-c2ccccc2)on1	1.4	0.87
COc1ccc(-c2cc(N)n(S(=O)(=O)c3ccc(F)cc3)n2)cc1OC	1.4	-0.02
CSc1sc(C(=O)NNC(C)=O)c2c1C=CCC2	1.4	-0.59
COC(=O)C1=C(C(=O)OC)[C@@H]2N(C)c3ccccc3[C@@]23C[C@@H](CO)N(C(=O)C2CCC2)C3=N1	0.67	-2.6
CCn1c(=N)n(CC(O)COc2cccc(C)c2)c2ccccc21 (stereo unspecified)	0.87	-0.82
CC(C)Cc1ccc(C(C)NC(=O)c2ccc(=O)[nH]c2)cc1 (stereo unspecified)	0.78	0.62
CC(=O)c1ccc(OCCCC(=O)N2CCN(S(=O)(=O)c3ccc(C(C)C)cc3)CC2)cc1	0.82	1.6
CC1=NN(C(=O)c2ccoc2C)C(O)(C(F)(F)F)C1 (stereo unspecified)	0.16	1.8
COc1ccc(NC(=O)c2cc(-c3ccc4c(c3)OCO4)on2)cc1	0.09	-0.11
CCc1ccccc1NC(=O)CNC(=O)c1ccc(-n2cncn2)c([N+](=O)[O-])c1	0.37	-1.6
Cc1cc(=O)oc2c3c(cc(OCC(=O)NCc4ccncc4)c12)OC(C)(C)CC3	0.92	-0.53
COc1ccccc1N(C(=O)Cn1nnc(-c2ccc(C)o2)n1)C(C(=O)NC1CCCC1)c1ccncc1 (stereo unspecified)	0.65	0.69
COc1ccc(/C=N/N=C2\SCC(=O)N2c2c(C)n(C)n(-c3ccccc3)c2=O)cc1OC	1.1	-0.49
Cc1cccc(NC(=O)CNC(=O)COc2ccc(-c3ccc(C#N)cc3)cc2)c1C	0.75	0.08
Cc1cc(C)n(-c2ccc(Cl)c(C(=O)O)n2)n1	0.41	-0.52
Cc1ccc2nc(-c3cccc(S(=O)(=O)N4CCCC4)c3)cn2c1	0.58	0.88
CCN=C1SC(CC(=O)NC(N)=O)C(=O)N1CC (stereo unspecified)	0.55	0.24
COc1ccc(CN2CCN(C(=O)c3ccc(-c4ccccc4)cc3)CC2)c(OC)c1OC	0.18	-2.5
NC(=O)[C@@H]1CC2(CC(c3cccc(NC(=O)CC(c4ccccc4)c4ccccc4)c3)=NO2)CN1C(=O)[C@@H]1CCC(=O)N1 (stereo partly specified)	0.02	-0.01
CCOC(=O)c1[nH]cnc1C(=O)Nc1ccccc1OC	0.78	-0.74
O=C(N[C@H](Cc1ccc(Cl)cc1)C(=O)O)OCC1c2ccccc2-c2ccccc21	1.1	-0.9
CCCN(Cc1cc2cc(C)ccc2[nH]c1=O)C(=O)c1ccccn1	0.26	0.12
O=c1c2ccccc2nnn1CSc1nnc(-c2cccc(S(=O)(=O)N3CCCCC3)c2)o1	0.46	-0.01
CCCn1c(NC(=S)Nc2ccccc2)nc2ccccc21	0.92	-0.29
CCc1ccc(NC(=O)CC2NCCNC2=O)cc1 (stereo unspecified)	0.8	0.06
CC(NC(=O)CCc1c[nH]c2ccccc12)c1ccccc1 (stereo unspecified)	0.73	2.8
CN(CC(=O)Nc1ccc(Cl)cc1)C(=O)CNC(=O)c1ccc2ccccc2c1	0.14	0.79
N#CCCn1nc(Cc2cccc3ccccc23)c(C#N)c1N	1.3	0.02
COc1ccc(CNC(=O)C2CCCN(c3nccc(C)n3)C2)cc1 (stereo unspecified)	0.02	0.01
NC1=NN=C(c2ccc3c(c2)OCCO3)CS1	0.03	-1.8
